Screens from PubChem BioAssay.
ALR H2O2 inh – blocks human ALR sulfhydryl oxidase activity. AID 485317. P55789. purified ALR, DTT oxidation, H2O2 HRP-luminol luminescence. inhibition, % (concentration not given with the values). hit rate 3.8% among 290,000;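 active means mean and each replicate at 75% or more; inconclusive means only one of the two met; inactive means neither met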;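 further: stock transfer was 7.5 nL into about 7.5 µL; 0% = neutral wells and 100% = wells with inactivated enzyme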
Target sequence (P55789 whole entry, looked up): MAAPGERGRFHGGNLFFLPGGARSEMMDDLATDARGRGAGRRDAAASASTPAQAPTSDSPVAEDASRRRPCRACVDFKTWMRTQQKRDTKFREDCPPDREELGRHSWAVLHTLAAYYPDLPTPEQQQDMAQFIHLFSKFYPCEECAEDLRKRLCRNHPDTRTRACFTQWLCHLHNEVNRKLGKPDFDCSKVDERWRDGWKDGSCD
RanGTP-Impb inh – inhibitors of RanGTP-importin-beta interaction, primary screen, biochemical, FRET, CFP-Ran, YFP-importin-beta, homogeneous; cell-free CFP-Ran/YFP-importin-beta FRET ratio; inhibition, % (concentration not given with the values); hit rate 1.1% among 300,000; AID 2216;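 active means most replicates above 15%; inconclusive means exactly half above 15%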;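 further: 0% = DMSO wells and 100% = Ran loaded with GDP instead of GTP; wells of about 40 µL received 100 nL stock; the first replicate is given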
FGF22 binding – binders of recombinant human FGF22 by thermal shift | Q9HCT0 | hit rate 1.5% among 340,000 | AID 651658 | calls only at 9.99 µM | SYPRO orange fluorescence; percent of sucrose octasulfate shift, DMSO zero;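 active means melting point raised past a set limit in the mean and every replicate; inconclusive means no clear call; three in four hits are not shown here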
Target sequence (Q9HCT0 whole entry, looked up): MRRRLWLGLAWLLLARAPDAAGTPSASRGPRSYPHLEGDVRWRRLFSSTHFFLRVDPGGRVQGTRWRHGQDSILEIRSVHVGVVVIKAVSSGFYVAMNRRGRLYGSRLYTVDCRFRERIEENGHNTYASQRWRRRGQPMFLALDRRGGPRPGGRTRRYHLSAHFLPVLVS
rRNA inh HTS – selective bacterial rRNA inhibition in E. coli; AID 720706; hit rate 1.6% among 350,000; GFP signal change (wild-type ribosome), % (concentration not given with the values); E. coli WT GFP vs humanized-ribosome RFP mutants, fluorescence, 24 h; hits give low values; DMSO median 0, no signal -100;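 active means significant combined selectivity score with lowered wild-type GFP, culture density cut under 30%, mutant RFP and density less affected; inactive means any of these conditions unmet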; further: one replicate is shown; some compounds called inactive have numbers as strong as hits
T cruzi repl – blocks replication of Trypanosoma cruzi. hit rate 1.4% among 300,000. AID 1885. T. cruzi beta-gal in NIH3T3, luminescence, 90 h. inhibition, % (test concentration not listed);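 active means mean inhibition across valid replicates above about 55%, limit read from the data; inconclusive means mean below that limit but half or more replicates reach it; inactive means mean below it, under half of replicates reach it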;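 further: signal also drops with host cell toxicity which is not excluded here; 0% = plate median of DMSO wells and 100% = zero luminescence signal; higher percent means less beta-gal luminescence so fewer parasites; stock transfer was 50 nL into about 50 µL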
Calb FLC – C. albicans growth modulation with fluconazole; growth inhibition, % (no concentration beside the values); hit rate 0.57% among 300,000; C. albicans CaCi-2 (fluconazole-resistant clinical isolate) + fluconazole, Alamar Blue growth, 48 h;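 active means most replicates above 75%; inconclusive means exactly half above 75%; inactive means most below 75%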;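 further: all wells also contain fluconazole at 8 µg/ml as a sub-toxic cotreatment; 0% = median of DMSO wells and 100% = median of geldanamycin control wells; wells of about 8 µL received 7.5 nL stock; the first replicate is given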
Beta cell apopt – beta cell apoptosis inhibition | protection from apoptosis, % (no concentration beside the values) | hit rate 0.8% among 300,000 | INS-1E cytokine-induced death, ATP luminescence, 48 h; percent of positive-control rescue, neutral wells zero;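 active means all replicates at 75% or more, or half of them and the mean; inconclusive means half reach 75% but not the mean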;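 further: 0% = cytokine-treated negative control wells and 100% = positive control rescue; higher means more ATP so stronger rescue from cytokine killing; wells of about 40 µL received 100 nL stock; the first replicate is given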
MLL AF4-AF9 inh – MLL-AF4/AF9 protein interaction inhibition | P42568 | AlphaScreen, biotin-AF4 peptide binding to FLAG-AF9 | inhibition, % at 10 µM | hit rate 0.47% among 350,000;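 active means every replicate reaching a set inhibition limit, whatever the replicate mean, cut at about 25% in these data; inconclusive means mean inhibition reaches that limit but some replicates miss it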;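 further: 0% = plate neutral control median and 100% = total signal loss; the record names both 10 and 1 µM as test concentration; the first replicate is given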
Target sequence (P42568 whole entry, looked up): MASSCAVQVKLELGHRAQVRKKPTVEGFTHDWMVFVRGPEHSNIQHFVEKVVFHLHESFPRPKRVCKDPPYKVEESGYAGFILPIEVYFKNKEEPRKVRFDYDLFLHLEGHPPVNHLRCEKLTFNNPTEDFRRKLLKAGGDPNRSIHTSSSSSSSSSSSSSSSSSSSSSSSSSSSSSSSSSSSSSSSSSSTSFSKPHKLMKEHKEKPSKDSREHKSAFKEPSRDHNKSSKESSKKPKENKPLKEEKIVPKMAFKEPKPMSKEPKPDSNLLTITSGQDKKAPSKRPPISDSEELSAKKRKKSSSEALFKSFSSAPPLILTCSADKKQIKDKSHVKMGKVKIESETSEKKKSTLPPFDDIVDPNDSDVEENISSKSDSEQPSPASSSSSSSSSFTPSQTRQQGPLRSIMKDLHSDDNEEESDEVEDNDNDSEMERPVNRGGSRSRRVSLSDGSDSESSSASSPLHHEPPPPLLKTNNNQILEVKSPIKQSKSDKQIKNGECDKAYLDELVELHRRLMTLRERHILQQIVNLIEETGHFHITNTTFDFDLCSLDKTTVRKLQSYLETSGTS
rRNA inh HTS OD600 – further read-out of rRNA inh HTS, marked with its call; OD600 change, %; measured here: OD600 growth;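 optical density of the mix in the first replicate; 0 = DMSO median and -100 = no signal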
rRNA inh HTS RFP – second read-out of rRNA inh HTS, no call of its own (marks repeat the call); RFP signal change, %; measured here: RFP humanized mutant strains;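 first replicate; 0 = DMSO median and -100 = no signal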
Active calls of the source: *.

How did O=C(/C=C/c1ccco1)NC(=S)Nc1ccccc1Br do in these assays?
ALR H2O2 inh: -2; RanGTP-Impb inh: 1.7; FGF22 binding: inactive; rRNA inh HTS: -4; T cruzi repl: -7; Calb FLC: 5; Beta cell apopt: 0; MLL AF4-AF9 inh: -43; rRNA inh HTS OD600: 3; rRNA inh HTS RFP: 0.6

Results for COc1cccc(N2CCN(C(=S)Nc3ccc(C)cc3C)CC2)c1 ?
ALR H2O2 inh: -15; RanGTP-Impb inh: -1.6; FGF22 binding: inactive; rRNA inh HTS: -2; T cruzi repl: 0; Calb FLC: 4; Beta cell apopt: -2; MLL AF4-AF9 inh: 1.5; rRNA inh HTS OD600: 3; rRNA inh HTS RFP: -6.4

Results for O=C(NCc1cccnc1)c1cc(-c2cccs2)on1 ?
ALR H2O2 inh: -7; RanGTP-Impb inh: -0.3; T cruzi repl: 1; Calb FLC: 1; Beta cell apopt: 9

Results for O=C(O)Cn1c(SCc2ccccc2)nc2ccccc21 ?
ALR H2O2 inh: -7; RanGTP-Impb inh: 0.5; T cruzi repl: -20; Calb FLC: -7; Beta cell apopt: 2

How did O=C(CN1C(=O)c2ccccc2C1=O)Oc1ccc(F)cc1 do in these assays?
ALR H2O2 inh: 0; RanGTP-Impb inh: 0.6; T cruzi repl: -6; Calb FLC: -2

What do the screens show for `CC1CN(C(=O)CCNC(=O)c2ccccc2Cl)CC(C)O1` (stereo not drawn)?
ALR H2O2 inh: 1; RanGTP-Impb inh: 3.0; FGF22 binding: inactive; rRNA inh HTS: 18; T cruzi repl: 5; Calb FLC: 0; Beta cell apopt: -4; MLL AF4-AF9 inh: -5.3; rRNA inh HTS OD600: 11; rRNA inh HTS RFP: 0.8

What do the screens show for `Cc1c(NC(=O)CN2C(=O)c3cccc4cccc2c34)c(=O)n(-c2ccccc2)n1C`?
ALR H2O2 inh: -31; RanGTP-Impb inh: -2.1; T cruzi repl: -1; Calb FLC: -13; Beta cell apopt: 0

Results for CC1(C)CC(=O)C(C(=O)c2ccccc2)C(=O)C1 ?
RanGTP-Impb inh: -3.5; FGF22 binding: inactive; rRNA inh HTS: 0; T cruzi repl: -5; Calb FLC: 9; Beta cell apopt: -12; MLL AF4-AF9 inh: 0.9; rRNA inh HTS OD600: -5; rRNA inh HTS RFP: -6.3

What do the screens show for `O=C(O)CCC(=O)N1N=C(c2cccs2)CC1c1cccc([N+](=O)[O-])c1` (stereo not drawn)?
ALR H2O2 inh: -2; RanGTP-Impb inh: 0.1; FGF22 binding: inactive; rRNA inh HTS: 7; T cruzi repl: -2; Calb FLC: -1; Beta cell apopt: 1; MLL AF4-AF9 inh: -0.8; rRNA inh HTS OD600: 12; rRNA inh HTS RFP: 6.6

How did Cc1cc(/C=C2\SC(=S)NC2=O)c(C)n1-c1cccc(O)c1 do in these assays?
ALR H2O2 inh: -8; RanGTP-Impb inh: 20*; FGF22 binding: inactive; rRNA inh HTS: -12; T cruzi repl: -14; Calb FLC: 16; Beta cell apopt: -1; MLL AF4-AF9 inh: 5.9; rRNA inh HTS OD600: 5; rRNA inh HTS RFP: 19

What do the screens show for `COc1cc(CNCc2ccc(SC)cc2)cc(OC)c1`?
ALR H2O2 inh: -2; RanGTP-Impb inh: inconclusive; FGF22 binding: inactive; rRNA inh HTS: -2; T cruzi repl: -22; Calb FLC: -36; Beta cell apopt: -2; MLL AF4-AF9 inh: -0.7; rRNA inh HTS OD600: -6; rRNA inh HTS RFP: 2.2

How did O=C(CCl)Nc1cccc(CP(=O)(c2ccccc2)c2ccccc2)c1 do in these assays?
RanGTP-Impb inh: -1.9; FGF22 binding: inactive; rRNA inh HTS: -7; T cruzi repl: -22; Calb FLC: -12; Beta cell apopt: -26; MLL AF4-AF9 inh: 3.1; rRNA inh HTS OD600: -2; rRNA inh HTS RFP: 3.4

What do the screens show for `CCN(CC)CCN(Cc1cc2cc3c(cc2[nH]c1=O)OCO3)C(=S)NCc1ccco1`?
ALR H2O2 inh: -12; RanGTP-Impb inh: 1.0; FGF22 binding: inactive; rRNA inh HTS: 16; T cruzi repl: 15; Calb FLC: -6; Beta cell apopt: -3; MLL AF4-AF9 inh: 4.3; rRNA inh HTS OD600: 8; rRNA inh HTS RFP: 1.8

What do the screens show for `COc1cc2[nH]c(=O)n(CCCCCC(=O)N3CC=C(c4ccccc4)CC3)c(=O)c2cc1OC`?
RanGTP-Impb inh: 4.3; T cruzi repl: 22; Calb FLC: 3; Beta cell apopt: -6

Results for COc1ccccc1NC(=O)Nc1nc(CC(=O)N2CCN(c3ccccc3)CC2)cs1 ?
ALR H2O2 inh: 43; RanGTP-Impb inh: 6.0; FGF22 binding: inactive; rRNA inh HTS: -6; T cruzi repl: 7; Calb FLC: -13; Beta cell apopt: 14; MLL AF4-AF9 inh: 0.9; rRNA inh HTS OD600: -17; rRNA inh HTS RFP: 4.9

Results for COc1ccc(-c2cc(C(=O)NC(C(=O)O)C(C)C)c(C)o2)cc1OC (stereo not drawn) ?
ALR H2O2 inh: -12; RanGTP-Impb inh: 1.6; T cruzi repl: -20; Calb FLC: -34; Beta cell apopt: -4

Results for COc1cccc(-c2cc(C(=O)N3CCc4ccccc4C3)[nH]n2)c1 ?
ALR H2O2 inh: -9; RanGTP-Impb inh: 3.4; FGF22 binding: inactive; rRNA inh HTS: 3; T cruzi repl: 1; Calb FLC: -12; Beta cell apopt: -4; MLL AF4-AF9 inh: -1.2; rRNA inh HTS OD600: 1; rRNA inh HTS RFP: -1.3

Results for O=C(C1CCCO1)N1CCN(C(=S)Nc2cc(F)cc(F)c2)CC1 (stereo not drawn) ?
ALR H2O2 inh: -4; RanGTP-Impb inh: 2.8; FGF22 binding: inactive; rRNA inh HTS: -1; T cruzi repl: -12; Calb FLC: 2; Beta cell apopt: -4; MLL AF4-AF9 inh: -2.7; rRNA inh HTS OD600: 1; rRNA inh HTS RFP: -0.5

How did Cc1cc(NC(=O)CSc2nnc(CNc3cccc(C(F)(F)F)c3)n2Cc2ccco2)no1 do in these assays?
RanGTP-Impb inh: inconclusive; T cruzi repl: -15; Calb FLC: 7; Beta cell apopt: 2

Results for O=C1CN(/N=C/c2ccc([N+](=O)[O-])o2)C(=O)N1 ?
ALR H2O2 inh: -22; RanGTP-Impb inh: -0.2; FGF22 binding: inactive; rRNA inh HTS: 10; T cruzi repl: inconclusive; Calb FLC: -4; Beta cell apopt: -10; MLL AF4-AF9 inh: 25*; rRNA inh HTS OD600: 10; rRNA inh HTS RFP: 6.2

How did COc1cccc(C(=O)Oc2cc(N)n(S(=O)(=O)c3ccc(C)cc3)n2)c1OC do in these assays?
ALR H2O2 inh: -3; RanGTP-Impb inh: -0.1; T cruzi repl: -9; Calb FLC: -7; Beta cell apopt: -21

What do the screens show for `COc1ccc(CC(=O)Nc2ccccc2N2CCCC2)cc1`?
ALR H2O2 inh: 6; RanGTP-Impb inh: 2.2; FGF22 binding: inactive; rRNA inh HTS: -23; T cruzi repl: 8; Calb FLC: -3; Beta cell apopt: -5; MLL AF4-AF9 inh: 6.1; rRNA inh HTS OD600: -20; rRNA inh HTS RFP: -2.6

Results for CC(=O)Nc1ccc(NC(=O)CSc2ccc3nnc(-c4ccccn4)n3n2)cc1 ?
ALR H2O2 inh: -4; RanGTP-Impb inh: -0.5; FGF22 binding: inactive; rRNA inh HTS: 1; T cruzi repl: -15; Calb FLC: -6; Beta cell apopt: -4; MLL AF4-AF9 inh: -2.0; rRNA inh HTS OD600: 5; rRNA inh HTS RFP: 0.9

What do the screens show for `C[C@@H]1CC[C@@]23COC(=O)C2=CCC[C@@H]3[C@@]1(C)CC/C(=C/CO)CO`?
FGF22 binding: inactive; rRNA inh HTS: -14; Beta cell apopt: -2; MLL AF4-AF9 inh: -1.5; rRNA inh HTS OD600: -16; rRNA inh HTS RFP: -15

How did c1ccc2[nH]c(SCc3cn4cccnc4n3)nc2c1 do in these assays?
ALR H2O2 inh: 99*; RanGTP-Impb inh: 4.9; T cruzi repl: -12; Calb FLC: 21; Beta cell apopt: -5

How did O=C(Nc1cccnc1)OC1CCCCC1 do in these assays?
ALR H2O2 inh: 26; RanGTP-Impb inh: -1.1; FGF22 binding: inactive; rRNA inh HTS: 3; T cruzi repl: -4; Calb FLC: -9; Beta cell apopt: -1; MLL AF4-AF9 inh: -0.8; rRNA inh HTS OD600: 3; rRNA inh HTS RFP: -4.0

What do the screens show for `Cc1ccc(NC(=O)CN(C)C(=O)CSc2nc(C)cc(C)n2)cc1`?
RanGTP-Impb inh: -0.1; FGF22 binding: inactive; rRNA inh HTS: 3; T cruzi repl: -8; Calb FLC: 13; Beta cell apopt: 3; MLL AF4-AF9 inh: -3.0; rRNA inh HTS OD600: 9; rRNA inh HTS RFP: 2.1

How did CCCCSc1[nH]c(=O)c(C(=O)OCC)cc1C#N do in these assays?
ALR H2O2 inh: 90*; RanGTP-Impb inh: 2.2; T cruzi repl: 5; Calb FLC: -3; Beta cell apopt: -5

How did COc1ccc(OC)c(CN2CCN(CCCc3ccccc3)C(CCO)C2)c1 (stereo not drawn) do in these assays?
ALR H2O2 inh: -1; RanGTP-Impb inh: -2.1; FGF22 binding: inactive; rRNA inh HTS: 9; T cruzi repl: 0; Calb FLC: -3; MLL AF4-AF9 inh: 7.7; rRNA inh HTS OD600: 9; rRNA inh HTS RFP: 0.8

Results for c1ccc2c(c1)CCCn1nnnc1-2 ?
ALR H2O2 inh: -4; RanGTP-Impb inh: 0.3; T cruzi repl: -3; Calb FLC: 13; Beta cell apopt: -4

Results for Cc1ccc(NC(=O)CCCCCN2C(=O)[C@@H]3Cc4ccccc4CN3C2=O)cc1 ?
ALR H2O2 inh: -4; RanGTP-Impb inh: -2.1; FGF22 binding: inactive; rRNA inh HTS: -5; T cruzi repl: 8; Calb FLC: -10; Beta cell apopt: 0; MLL AF4-AF9 inh: 0.8; rRNA inh HTS OD600: -1; rRNA inh HTS RFP: -0.6

How did CC1CCN(C(=O)c2ccc(S(=O)(=O)Cc3ccccc3F)c([N+](=O)[O-])c2)CC1 do in these assays?
ALR H2O2 inh: 10; RanGTP-Impb inh: 3.0; FGF22 binding: inactive; rRNA inh HTS: -1; T cruzi repl: -1; Calb FLC: 12; Beta cell apopt: 3; MLL AF4-AF9 inh: -0.9; rRNA inh HTS OD600: -1; rRNA inh HTS RFP: 1.1

Results for COc1ccc2cc(C(=O)Nc3ccc(Cl)cc3)sc(=O)c2c1OC ?
ALR H2O2 inh: -5; RanGTP-Impb inh: 4.0; T cruzi repl: -8; Calb FLC: 5; Beta cell apopt: -3

What do the screens show for `CCN(CC)C(=O)CSC1c2ccccc2C(=O)N1c1ccccc1` (stereo not drawn)?
ALR H2O2 inh: 12; RanGTP-Impb inh: -2.4; FGF22 binding: inactive; rRNA inh HTS: 1; T cruzi repl: -17; Calb FLC: 7; Beta cell apopt: 0; MLL AF4-AF9 inh: 7.4; rRNA inh HTS OD600: 7; rRNA inh HTS RFP: -5.1

What do the screens show for `CCOc1ccc(C(=O)CCC(=O)NCC(=O)Nc2c(C)cccc2C)cc1`?
FGF22 binding: inactive; rRNA inh HTS: 18; Beta cell apopt: -2; MLL AF4-AF9 inh: -1.2; rRNA inh HTS OD600: 13; rRNA inh HTS RFP: 2.1

Not all compounds are listed, so the mix of outcomes need not match the whole.
